Rango-impB inh = qHTS Assay for Inhibitors of Rango (Ran-regulated importin-beta cargo) - Importin beta complex formation | Importin subunit beta-1 (Homo sapiens), Q14974 | Rango CFP/YFP FRET sensor + importin beta, 45 min | Potency, µM (highest dose often 92.2 µM), for inactives: at the highest dose inhibition of complex formation | actives 0.031% (n = 340,000); active = rising FRET ratio curve, often small or poorly fitted; inconclusive = mostly compound fluorescence or quenching in the first reads; inactive = flat curves in all reads;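 further: potency means the concentration at half of the fitted maximal effect; 0% = DMSO wells and 100% = buffer wells lacking importin beta; nearly all actives have a fitted effect of over 15% in size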
Target sequence (Q14974 whole entry, looked up): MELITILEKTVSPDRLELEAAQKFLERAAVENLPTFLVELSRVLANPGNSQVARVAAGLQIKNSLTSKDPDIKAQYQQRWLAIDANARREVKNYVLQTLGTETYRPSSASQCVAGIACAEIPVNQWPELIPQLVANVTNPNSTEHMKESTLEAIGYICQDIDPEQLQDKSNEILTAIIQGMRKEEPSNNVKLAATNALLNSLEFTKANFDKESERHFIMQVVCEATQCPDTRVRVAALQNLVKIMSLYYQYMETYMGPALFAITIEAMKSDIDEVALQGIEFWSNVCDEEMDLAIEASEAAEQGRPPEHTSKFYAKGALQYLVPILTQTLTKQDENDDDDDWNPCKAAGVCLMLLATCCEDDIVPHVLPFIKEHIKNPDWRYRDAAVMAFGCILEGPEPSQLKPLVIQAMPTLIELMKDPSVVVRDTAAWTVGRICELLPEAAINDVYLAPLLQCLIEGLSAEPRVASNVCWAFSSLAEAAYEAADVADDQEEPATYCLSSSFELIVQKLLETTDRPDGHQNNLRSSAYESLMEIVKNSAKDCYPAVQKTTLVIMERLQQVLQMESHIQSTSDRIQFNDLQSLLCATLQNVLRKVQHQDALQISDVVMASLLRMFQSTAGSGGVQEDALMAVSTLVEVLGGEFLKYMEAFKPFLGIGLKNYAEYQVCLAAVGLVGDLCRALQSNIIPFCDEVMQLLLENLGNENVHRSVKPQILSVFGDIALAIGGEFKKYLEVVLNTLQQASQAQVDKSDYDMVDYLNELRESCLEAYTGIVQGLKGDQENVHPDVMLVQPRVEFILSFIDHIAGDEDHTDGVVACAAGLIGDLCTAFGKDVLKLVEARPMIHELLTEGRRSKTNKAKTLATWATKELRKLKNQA
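Inhibition scored from the CFP 486 nm/YFP 530 nm FRET ratio 45 min after adding 0.125 microM importin beta to 50 nM Rango biosensor preincubated 5 min with compound (room temperature, PBS with DTT, Tween-20, BSA). No-importin wells as positive control.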
Rango dissoc inh = qHTS Assay for Inhibitors of RanGTP induced Rango (Ran-regulated importin-beta cargo) - Importin beta complex dissociation. Biochemical FRET Rango-importin beta, RanGTP-induced dissociation. Potency, µM (series often up to 46.1 µM), for inactives: at the top dose activity change, negative = inhibition. actives 0.071% (n = 340,000); active means falling FRET ratio curve, often poorly fitted, with flat reads before Ran was added; inconclusive means other falling curves, or compound fluorescence or quenching; inactive means flat or rising ratio curve;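 further: potency means the concentration at half of the fitted maximal effect; % of control where 0% means no effect; nearly all actives have a fitted effect of over 45% in size; -100% = wells without RanGTP and RCC1; the record marks most hits as doubtful in a second field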
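Compounds preincubate 5 min with complex of recombinant Rango and importin beta in PBS with 1 mM DTT. Ran (0.6 uM) loaded with 2 mM GTP plus 0.2 uM RCC1 starts dissociation; FRET is recorded 45 min later.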
GLA inh pH 4.5 = qHTS Assay for Inhibitors of Human alpha-Galactosidase at pH 4.5 | Alpha-galactosidase A (Homo sapiens), P06280 | purified enzyme, 4-MU-alpha-Gal fluorescence, pH 4.5 | 230,000 tested, under 10 active | activity change, negative = inhibition, % at 105 µM | AID 1467, 2008; inconclusive = small, poorly fitted or top-dose-only inhibition, or a rising curve; inactive = flat fitted curve, though single readings scatter; no compound was filed as active;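 further: 0% = full activity with enzyme and -100% = basal without enzyme; dose as in the result columns while the protocol names 77 µM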
miR-21 reporter = qHTS Assay for Modulators of miRNAs and/orActivators of miR-21 | 340,000 tested, under 10 active | HeLa miR-21 FLuc reporter, luciferase, 48 h | Potency, µM (top dose mostly 38.3 µM), without a hit: at the highest dose reporter change, positive = more light | AID 2288, 2010; active = well fitted rising curve with a large enough effect; inconclusive = small, poorly fitted or top-dose-only effect; inactive = no such curve, though single readings can be large or run the other way;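 further: % of control where 0% means no effect; miR-21 action dims this reporter so a rising signal means less miR-21 action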
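Compounds were titrated across several concentrations (up to approximately 40 uM) and incubated 48 hours with HeLa miR-21-FLuc reporter cells (miR-21 target sequence downstream of FLuc, endogenous miR-21). Readout was firefly luciferase luminescence after lytic detection reagent.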
* = called active by the depositor; u = inconclusive; x = not tested or not shown; & = joins results of further samples. Some of the compounds tested; rates above refer to the full screens.

Start of the data: the first 5 records, to show the layout:
miR-21 reporter,Rango dissoc inh,GLA inh pH 4.5,Rango-impB inh,SMILES
-10%,-3%,1,0.5%,Cc1ccc(Cl)cc1NC(=O)C(=O)N1CCCCC1
2%,21%,x,-0.9%,Cc1ccccc1-n1nc2c(c1NC(=O)c1cccs1)CS(=O)(=O)C2
x,-6%,x,0.8%,O=C(NCC(c1ccco1)N1CCN(c2ccccc2)CC1)C(=O)NC1CC1 (stereo not drawn)
-58%,-10%,4,-0.6%,O=C(N/N=C/C(Cl)=C/c1ccccc1)c1ccco1
-5%,-15%,-10,0.3%,CCC(=O)N1CC(C)C(=O)Nc2ccccc21 (stereo not drawn)

The list itself, repeating the preview:
miR-21 reporter,Rango dissoc inh,GLA inh pH 4.5,Rango-impB inh,SMILES
-10%,-3%,1,0.5%,Cc1ccc(Cl)cc1NC(=O)C(=O)N1CCCCC1
2%,21%,x,-0.9%,Cc1ccccc1-n1nc2c(c1NC(=O)c1cccs1)CS(=O)(=O)C2
x,-6%,x,0.8%,O=C(NCC(c1ccco1)N1CCN(c2ccccc2)CC1)C(=O)NC1CC1 (stereo not drawn)
-58%,-10%,4,-0.6%,O=C(N/N=C/C(Cl)=C/c1ccccc1)c1ccco1
-5%,-15%,-10,0.3%,CCC(=O)N1CC(C)C(=O)Nc2ccccc21 (stereo not drawn)
-6%,-20%,-6,0.0%,O=C(CC(C(=O)NCc1ccccc1)c1nc2ccccc2c(=O)[nH]1)NCc1ccccc1 (stereo not drawn)
-5%,11%,5,-3.0%,O=C(CCCC(=O)NNC(=O)Nc1ccccc1)NNC(=O)Nc1ccccc1
-9%,-12%,2,7.4%,CCCOC(=O)c1cccc(NC(=O)c2cccnc2)c1
x,17%,x,1.9%,CCN(CC(=O)Nc1ccc(NC(C)=O)cc1)C(=O)c1cc2ccccc2oc1=O
-1%,0%,x,6.0%,Cc1ccc(NC(=O)C(C)Sc2n[nH]c(CNc3ccccc3)n2)cc1 (stereo not drawn)
x,3%,x,2.9%,CC(Sc1ccccc1)C(=O)NNC(=O)c1csc(N2CCOCC2)n1 (stereo not drawn)
1%,-7%,x,-2.5%,CCOc1cc(/C=N/N2CCN(Cc3ccccc3)CC2)ccc1O
x,5%,x,2.4%,CC12CCC(=O)N1C(C(=O)Nc1cc(C(F)(F)F)ccc1N1CCCCC1)CS2 (stereo not drawn)
-13%,u,x,2.2%,COc1ccc(NC2CCCN(C(=O)c3cc4ncccn4n3)C2)cc1 (stereo not drawn)
-6%,-11%,6,0.4%,CCn1nc(CC(=O)Nc2nnc(CC(=O)N3CCCC3)s2)c2ccccc2c1=O
-3%,10%,x,-0.2%,CC1CCCC(C)N1C(=O)CSc1ncccn1 (stereo not drawn)
-2%,3%,0,-7.3%,CC1CCCCC1NC(=O)CSc1nc2ccccc2c(=O)n1Cc1ccco1 (stereo not drawn)
-2%,-2%,3,0.9%,COc1ccc(-n2c(SCC(=O)NCc3cccs3)nnc2-c2ccoc2C)cc1
3%,7%,-8,-0.1%,CC(C)(C)CC(C)(C)N1CNC(=S)NC1
1%,-10%,3,5.1%,O=C(O)CN1CCc2ccccc2C1
x,1%,x,0.1%,Clc1ccccc1N1CCN(Cc2ccc(Br)o2)CC1
-10%,-2%,2,-1.3%,COCc1nnc(NC(=O)CSCc2ccccc2)s1
-4%,13%,x,5.5%,COc1cccc(NC(=O)Cc2nnc(SCC(=O)NC3CCCC3)n2C)c1
1%,-13%,-6,u,CC(C)c1ccc(NC(=O)C(=O)c2cn(CC(=O)N3CCCCC3)c3ccccc23)cc1
-34%,15%,x,2.8%,Cc1cccc(NC(=O)Nc2ccc(Cl)cc2)n1
-2%,0%,x,-1.3%,COc1ccc(CCC(C)NCc2ccc(Cl)c(Cl)c2)cc1 (stereo not drawn)
-34%,0%,x,0.4%,Cc1ccc(C(=O)OCC(=O)N2CCCC2)cc1
x,-2%,x,-0.5%,Cc1ccc(NC(=O)COC(=O)CCC2CCCC2)c(Br)c1
-6%,-18%,x,-0.4%,O=C(/C=C/c1c(F)cccc1Cl)Nc1ccc(S(=O)(=O)Nc2ncccn2)cc1
-18%,18%,-6,-0.6%,Cc1ccc(S(=O)(=O)Cc2csc(N)n2)cc1
-2%,6%,-3,1.8%,O=C(CN1CCOCC1)Nc1ccccc1
-1%,12%,6,2.5%,COc1ccccc1CNC(=O)CCCn1c(=O)c2ccccc2n(CC(=O)NC2CCCC2)c1=O
25%,1%,x,-0.3%,CC(=O)N1c2ccc(S(=O)(=O)N3CCCC(C(=O)Nc4cccc(Cl)c4)C3)cc2CC1C (stereo not drawn)
-10%,2%,x,-4.0%,O=C(Cc1ccccc1)c1ccccc1C(=O)N1CCCCC1
-4%,0%,11,0.2%,O=C(CCCC(=O)OCC(Cl)=C(Cl)Cl)Nc1ccc(F)cc1
x,17%,x,-1.2%,CC1CCC(NC(=O)CNC(=O)c2ccc3ccccc3c2)CC1 (stereo not drawn)
-1%,10%,x,-0.5%,N#Cc1ccc(C(=O)OCC(=O)NC2CCCC2)cc1
x,-19%,x,-3.2%,N#CCC(=O)Nc1ccc(C(=O)OCC(=O)NCc2ccc3c(c2)OCO3)cc1
-1%&0%,18%,x,-0.3%,Cc1ccc(N(CC(=O)NC(C)c2ccccc2)S(=O)(=O)c2c(C)noc2C)cc1 (stereo not drawn)
0%,0%,3,-4.0%,COc1ccc(-c2nc(CSCC(=O)N3CCc4ccccc43)c(C)o2)cc1OC
14%,4%,-3,6.5%,O=C(C1CCCCC1)N1CCC(c2nc3c(nnn3Cc3c(F)cccc3Cl)c(=O)[nH]2)CC1
-37%,u,9,u,C/C(=N\NC(=O)c1ccc(C)cc1C)c1ccc2c(c1)Nc1ccccc1S2
4%,4%,1,-0.9%,CCN(CC)C(=O)Cn1cnc2sc(C(=O)N3CCN(c4ccc(F)cc4)CC3)c(C)c2c1=O
x,-5%,x,1.2%,CC1CC(C)CN(C(=O)C(C)N2CCN(S(=O)(=O)c3ccc(Br)s3)CC2)C1 (stereo not drawn)
-8%,-9%,-3,4.6%,Cn1cc(C(=O)c2ccc(Cl)cc2Cl)cc1C(=O)O
x,2%,x,-0.8%,CC(C)[C@H](NC(=O)c1ccco1)C(=O)OCC(=O)c1ccc(Br)s1
-5%,1%,x,0.3%,Cc1cc(OC(C)C(=O)N(Cc2ccco2)C2CCS(=O)(=O)C2)cc(C)c1Cl (stereo not drawn)
x,10%,x,0.1%,CC1CCCC(C)N1C(=O)CSc1nnc(-c2ccco2)n1C (stereo not drawn)
0%,-17%,7,-0.1%,COc1cccc(Cn2cccc(NC(=O)Nc3ccccc3C)c2=O)c1
1%,-3%,-8,-1.2%,Cc1ccc(NC(=S)C2=C(O)c3ccccc3N(C)S2(=O)=O)cc1
-1%,14%,5,0.4%,O=C(CNS(=O)(=O)N1CCOCC1)N/N=C/c1cccnc1
-10%,0%,-6,0.7%,O=C(NCC(=O)N(CC1CCCO1)C(C(=O)NC1CCCCC1)c1ccc(F)cc1)c1ccco1 (stereo not drawn)
-5%,-7%,x,-3.3%,COc1ccc(N2CC(C(=O)N[C@@H](C)C(=O)N[C@H](CO)c3ccccc3)CC2=O)cc1 (stereo partly drawn)
0%,u,-5,u,COc1cc(/C=C(\C#N)c2nc3ccccc3n2C)cc(OC)c1O
u,-1%,2,-2.9%,CC(C)n1c(O)c(N=NC(=O)Cc2csc(N3CCOCC3)n2)c2ccccc21
-24%,0%,1,-6.8%,Cc1cs/c(=N\N=C\c2cccc([N+](=O)[O-])c2)n1Cc1ccco1
x,3%,x,1.3%,CC(NC(=O)COC(=O)Cc1cccs1)c1ccc(F)cc1 (stereo not drawn)
u,x,9,x,N#C[C@H]1[C@H](c2ccccc2)[C@](C#N)(C(=O)c2ccccc2)[C@@H]2C=Cc3ccccc3N21
-19%,12%,x,1.3%,O=C(CCN1C(=O)S/C(=C\c2ccc(F)cc2)C1=O)Nc1ccc(C(=O)O)c(O)c1
2%,2%,x,-7.2%,c1ccc(CCCN2CCOCC2)cc1

Next section.
miR-21 reporter,Rango dissoc inh,GLA inh pH 4.5,Rango-impB inh,SMILES
3%,1%,-9,-4.2%,N#CCCn1cc(/C=N/NC(N)=S)c(-c2ccc(-c3ccccc3)cc2)n1
-29%,14%,x,-0.7%,CC(=O)c1ccc(NC(=O)c2cccc(NC(=O)c3ccccc3)c2)cc1
-1%,-7%,-7,0.3%,CC(C)(C)CC(=O)NCCCN1CCOCC1
0%,5%,5,2.5%,COc1ccc(C(=O)NCCCCCC(=O)O)cc1OC
-33%,-11%,x,-0.5%,Cc1ccnc(NC(=O)CCc2c[nH]c3ccccc23)c1
1%,-10%,-1,2.5%,O=S(NCc1ccco1)C12CC3CC(CC(C3)C1)C2 (stereo not drawn)
8%,-22%,3,1.7%,CCc1ccc(NS(=O)(=O)c2cc(OC)ccc2OC)cc1
1%,2%,5,2.4%,O=C(CNC(=S)N(Cc1ccccc1)Cc1cccnc1)N1CCOCC1
0%,-1%,4,-1.3%,Cc1cccc(/N=C2/NC(=O)C(Cc3ccccc3)S2)n1 (stereo not drawn)
0%,19%,0,3.1%,Cc1cccc(C)c1NC(=S)NCCCN1CCCC1=O
-3%,16%,7,-0.9%,CC(=O)NS(=O)(=O)c1ccc(NC(=O)CSc2ccc(Cl)cc2)cc1
x,-10%,x,u,CCC(=O)[C@@]1(C)[C@H](C)C[C@H]2[C@@H]3CCC4=CC(=O)C=C[C@]4(C)[C@H]3[C@@H](O)C[C@@]21C
x,-11%,x,0.6%,Cc1ccc(S(=O)(=O)N2CCOCC2)cc1C(=O)Nc1nc(-c2ccccn2)cs1
-1%,u,3,u,O=C(NCc1ccccc1)c1sc(=S)n2c1[nH]c(=O)c1ccccc12
-2%,-9%,4,2.4%,CCCNC(=O)c1ccccc1NC(=O)CSCc1ccc(OC)cc1
2%,14%,x,-0.2%,C=CCNc1nc(Nc2cc(Cl)ccc2OC)nc(OC)n1
x,16%,x,-0.2%,CN(NS(=O)(=O)c1ccccc1)C(=O)c1ccccc1
2%,9%,x,-2.7%,COCCn1c(SCC(=O)NCc2ccc(F)cc2)nc2ccccc21
x,-8%,x,0.6%,Cc1noc(NS(=O)(=O)c2ccc(NC(=O)c3ccc(F)cc3)cc2)c1C
17%,15%,12,0.1%,CCOC(=O)c1[nH]c2c(c1C)C(=O)CC(c1ccc(F)cc1)C2 (stereo not drawn)
11%,-14%,9,3.1%,Cc1ccc(C2C(C#N)=C(N)Oc3n[nH]c(-c4ccccc4)c32)o1 (stereo not drawn)
x,-1%,x,-6.0%,COCCn1c(SCC(=O)Nc2cc(C)on2)nc2cc(Cl)ccc2c1=O
0%,1%,18,1.0%,O=C(COC(=O)Cc1ccsc1)NCc1ccccc1

4 of these compounds in another layout.
Value order – miR-21 reporter, Rango dissoc inh, GLA inh pH 4.5, Rango-impB inh
CCOC(=O)c1[nH]c2c(c1C)C(=O)CC(c1ccc(F)cc1)C2 (stereo not drawn)
 : 17%, 15%, 12, 0.1%
CN(NS(=O)(=O)c1ccccc1)C(=O)c1ccccc1
 : x, 16%, x, -0.2%
O=C(COC(=O)Cc1ccsc1)NCc1ccccc1
 : 0%, 1%, 18, 1.0%
C=CCNc1nc(Nc2cc(Cl)ccc2OC)nc(OC)n1
 : 2%, 14%, x, -0.2%

Screens (PubChem BioAssay)
